Source: PubChem BioAssay
Vif A3G: HIV-1 Vif–A3G interaction blockers – biochemical, TR-FRET, GST-Vif 1-94, biotin-A3G peptide, dose response retest, primary screen (AID 1117319). 260,000 compounds, 0.57% hits. TR-FRET GST-Vif / biotin-A3G peptide binding; higher % means a stronger effect; test concentration not given here; strong numbers were not always called active. inhibition, %, or IC50 in µM where a hit was titrated;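 active means above the screen mean plus three standard deviations and confirmed in dose response; inconclusive means results disagree or hit not tested in dose response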;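 further: Vif residues 1-94 fused to GST binding biotinylated APOBEC3G peptide 110-148; 0% = full assay without inhibitor and 100% = GST in place of GST-Vif; retest series ran down from 100 µM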
FGF22 binding: FGF22 (human) thermal shift binding; Q9HCT0; recombinant FGF22 thermal shift, SYPRO orange fluorescence; percent of sucrose octasulfate shift, DMSO zero; calls only at 9.99 µM; 340,000 compounds, 1.5% hits;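 active means melting point raised past a set limit in the mean and every replicate; inconclusive means no clear call; three in four hits are not shown here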
Target sequence (Q9HCT0 whole entry, looked up): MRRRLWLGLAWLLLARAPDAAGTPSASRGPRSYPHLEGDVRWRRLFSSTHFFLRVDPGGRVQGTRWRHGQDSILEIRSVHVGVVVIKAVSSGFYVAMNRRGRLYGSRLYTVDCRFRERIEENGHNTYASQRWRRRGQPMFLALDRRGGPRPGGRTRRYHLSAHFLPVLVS
Ecoli rRNA inh: selective bacterial rRNA inhibition in E. coli; E. coli WT GFP vs humanized-ribosome RFP mutants, fluorescence, 24 h; stronger effect = lower value; DMSO median 0, no signal -100; GFP signal change (wild-type ribosome), % (no concentration beside the values); 350,000 compounds, 1.6% hits; AID 720706;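 active means significant combined selectivity score with lowered wild-type GFP, culture density cut under 30%, mutant RFP and density less affected; inactive means any of these conditions unmet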; further: one replicate is shown; some compounds called inactive have numbers as strong as hits
MLL AF4-AF9 inh: blocks AF4 peptide binding to human AF9. P42568. AlphaScreen, biotin-AF4 peptide binding to FLAG-AF9. inhibition, % at 10 µM. 350,000 compounds, 0.47% hits. AID 651704;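 active means every replicate reaching a set inhibition limit, whatever the replicate mean, cut at about 25% in these data; inconclusive means mean inhibition reaches that limit but some replicates miss it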;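 further: 0% = plate neutral control median and 100% = total signal loss; the record names both 10 and 1 µM as test concentration; the first replicate is given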
HNF4A DNA FP: change in binding of human HNF4 alpha to DNA; HNF4a-FITC DNA binding, fluorescence polarization, 1 h; 360,000 compounds, 0.3% hits; AID 1224865; P41235; activity change, % at 10 µM; in the data active means activity change above about 30%, passing the limit was not always enough;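 further: controls were the assay level and a saturating level of protein; the project sought stronger binding though the title names inhibitors; some compounds called inactive have numbers as strong as hits; positive values seem to mean higher polarization but the record does not say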
Target sequence (P41235 whole entry, looked up): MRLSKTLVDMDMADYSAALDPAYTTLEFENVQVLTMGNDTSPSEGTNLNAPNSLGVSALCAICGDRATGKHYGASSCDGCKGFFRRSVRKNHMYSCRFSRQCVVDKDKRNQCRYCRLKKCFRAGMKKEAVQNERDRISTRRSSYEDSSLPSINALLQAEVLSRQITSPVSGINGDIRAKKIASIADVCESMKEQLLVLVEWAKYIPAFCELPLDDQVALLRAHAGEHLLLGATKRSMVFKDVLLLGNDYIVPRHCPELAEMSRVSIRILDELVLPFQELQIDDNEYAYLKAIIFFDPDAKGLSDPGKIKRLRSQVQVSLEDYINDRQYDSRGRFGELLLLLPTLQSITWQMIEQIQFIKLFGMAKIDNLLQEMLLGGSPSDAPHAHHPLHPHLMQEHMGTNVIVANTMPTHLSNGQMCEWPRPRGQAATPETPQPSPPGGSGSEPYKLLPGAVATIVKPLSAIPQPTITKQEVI
E coli growth: inhibitors of Escherichia coli growth | OD600, 23 h; stronger effect = lower value | OD600 absorbance (no concentration beside the values) | 330,000 compounds, 0.21% hits;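 active means OD600 absorbance below the run mean of sample wells minus 3.6 SD, in any replicate, cut at about 0.56 in these data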;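 further: stock transfer was 300 nL into about 60 µL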
ALR H2O2 inh: inhibitors of human sulfhydryl oxidase ALR; AID 485317; 290,000 compounds, 3.8% hits; purified ALR, DTT oxidation, H2O2 HRP-luminol luminescence; P55789; inhibition, % (concentration not given with the values);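 active means mean and each replicate at 75% or more; inconclusive means only one of the two met; inactive means neither met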;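 further: stock transfer was 7.5 nL into about 7.5 µL; 0% = neutral wells and 100% = wells with inactivated enzyme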
Target sequence (P55789 whole entry, looked up): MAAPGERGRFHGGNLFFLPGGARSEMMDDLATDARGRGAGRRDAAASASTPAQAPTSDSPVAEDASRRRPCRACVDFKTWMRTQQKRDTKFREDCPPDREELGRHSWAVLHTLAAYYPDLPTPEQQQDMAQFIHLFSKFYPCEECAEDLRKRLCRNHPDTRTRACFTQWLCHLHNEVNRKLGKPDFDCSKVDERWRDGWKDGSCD
Ecoli rRNA inh OD600: also measured in Ecoli rRNA inh; calls as there; OD600 change, %; measured here: OD600 growth;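 optical density of the mix in the first replicate; 0 = DMSO median and -100 = no signal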
Ecoli rRNA inh RFP: recorded beside Ecoli rRNA inh, whose call it bears; RFP signal change, %; measured here: RFP humanized mutant strains;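 first replicate; 0 = DMSO median and -100 = no signal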
Active calls of the source: *; i = inactive; ? = inconclusive; / = no result given; & = joins results of further samples. These rows are one share of the data, so the mix of outcomes need not match the whole.

A first look, six compounds:
Vif A3G,FGF22 binding,Ecoli rRNA inh,Ecoli rRNA inh OD600,Ecoli rRNA inh RFP,MLL AF4-AF9 inh,HNF4A DNA FP,E coli growth,ALR H2O2 inh,Compound
/,i,2,10,-3.0,-0.3,/,/,/,CCCNC(=O)N1C[C@H]2[C@@H](c3ccccc31)[C@H](CO)N2C(=O)Nc1ccc(F)cc1
/,i,-10,-6,-0.5,-0.6,-1.1,0.73,58,COc1ccc(C(=O)N/C(=C/c2ccc(Cl)cc2)C(=O)Nc2ccc(C(=O)O)cc2)cc1
/,i,1,2,-0.9,-0.4,/,/,/,CCC(=O)N[C@@H]1C=C[C@H](CC(=O)NCc2ccc(OC)cc2)O[C@H]1CO
-3%,i,1,4,-2.3,-18,-2.4,0.76,/,Cc1cccn2cc(CNS(=O)(=O)c3cccc(F)c3)nc12
-1%,/,/,/,/,/,1.1,0.74,-4,C=CCNC(=O)c1ccc(C)c(Br)c1
/,i,11,20,1.0,-8.7,2.9,/,/,O=C(Nc1ccc(C(O)c2ccccc2)cc1)[C@H]1C[C@H](O)[C@@H](CO)O1 (stereo partly drawn)

This part in full, from the start:
Vif A3G,FGF22 binding,Ecoli rRNA inh,Ecoli rRNA inh OD600,Ecoli rRNA inh RFP,MLL AF4-AF9 inh,HNF4A DNA FP,E coli growth,ALR H2O2 inh,Compound
/,i,2,10,-3.0,-0.3,/,/,/,CCCNC(=O)N1C[C@H]2[C@@H](c3ccccc31)[C@H](CO)N2C(=O)Nc1ccc(F)cc1
/,i,-10,-6,-0.5,-0.6,-1.1,0.73,58,COc1ccc(C(=O)N/C(=C/c2ccc(Cl)cc2)C(=O)Nc2ccc(C(=O)O)cc2)cc1
/,i,1,2,-0.9,-0.4,/,/,/,CCC(=O)N[C@@H]1C=C[C@H](CC(=O)NCc2ccc(OC)cc2)O[C@H]1CO
-3%,i,1,4,-2.3,-18,-2.4,0.76,/,Cc1cccn2cc(CNS(=O)(=O)c3cccc(F)c3)nc12
-1%,/,/,/,/,/,1.1,0.74,-4,C=CCNC(=O)c1ccc(C)c(Br)c1
/,i,11,20,1.0,-8.7,2.9,/,/,O=C(Nc1ccc(C(O)c2ccccc2)cc1)[C@H]1C[C@H](O)[C@@H](CO)O1 (stereo partly drawn)
1%,/,/,/,/,/,1.5,0.69,2,O=C(OCc1cccs1)c1ccccc1NS(=O)(=O)c1ccc2c(c1)OCCO2
-10%,i,17,4,-2.2,-7.5,4.6,0.7,3,Cc1c(C(=O)Nc2ccc(F)cc2)cn2c(nc3ccccc32)c1C#N
-2%,i,8&-2,4&-1,-5.1&-2.5,-0.5,4.1,/,/,C[C@@H]1CN([C@H](C)CO)C(=O)CCCn2nncc2CO[C@@H]1CN(C)S(=O)(=O)c1ccc(C#N)cc1
12%,/,/,/,/,/,0.9,0.78,10,CCOc1cc(C2C(C#N)=C(N)Oc3n[nH]c(CC)c32)ccc1OCCN1CCOCC1 (stereo not drawn)
/,i,-14,-11,-0.8,-4.7,3.2,0.71,30,COc1ccc(NS(=O)(=O)c2cccc(NC(=O)C3=NN(c4ccccc4)C(=O)CC3)c2)cc1
/,/,/,/,/,/,-1.9,0.69,-25,COc1cc(Cl)c(C)cc1NC(=O)c1cc(S(=O)(=O)N(C)C)ccc1N1CCCC1
-6%,/,/,/,/,/,0.9,0.76,-5,Cc1ccc(S(=O)(=O)N(C)CC(=O)N2CCCC2)cc1
-6%,/,/,/,/,/,-0.7,0.74,45,Cc1cc(NC(=O)CSc2nc(C3CCCCC3)nc3ccccc23)no1
/,i,2,2,-2.5,-1.5,/,/,/,C[C@H](NC(=O)[C@H]1[C@H](CO)[C@H]2Cn3c(cccc3=O)[C@@H]1N2Cc1ccncc1)c1ccccc1
/,i,0,-34,-1.2,-0.4,-1.7,0.66,/,Cc1noc(C)c1COc1cccc(C(=O)Nc2ccc(Br)cc2F)c1
/,i,-4,-9,0.6,-2.4,/,/,/,C[C@H]1CN([C@@H](C)CO)C(=O)c2cccc(NC(=O)Nc3ccc(C(F)(F)F)cc3)c2O[C@H]1CN(C)Cc1ccncc1
29%,/,/,/,/,/,-2.6,0.69,5,CCCOc1nc2c(c(=O)n(C)c(=O)n2C)n1Cc1cccc2ccccc12
/,i,-4,1,-3.4,-2.4,/,/,/,CCNC(=O)C[C@@H]1CC[C@@H]2[C@H](COC[C@@H](O)CN2Cc2ccc(Cl)c(Cl)c2)O1
-6%,/,/,/,/,/,-0.7,0.69,1,CC(C)NC(=O)c1ccc(-c2cc(C(F)(F)F)ccc2Cl)o1
-3%,i,11,9,-0.1,-3.4,2.2,0.76,/,O=C1C2CCCN2C(c2ccc(F)cc2)N1c1ccc(Cl)cc1 (stereo not drawn)
4%,i,2,18,2.4,-2.3,-0.9,0.68,0,CCCc1cc(=O)n2[nH]c(SCc3ccc(Cl)cc3)nc2n1
/,i,11,4,-5.5,-20,2.2,0.65,-2,Cc1ccc(NC(=O)CCS(=O)(=O)c2ccc(Br)cc2)nc1
/,i,-2,-3,1.9,-2.0,/,/,/,C[C@@H]1CN([C@@H](C)CO)S(=O)(=O)c2ccc(C#Cc3ccccn3)cc2O[C@H]1CN(C)C(=O)C1CC1
/,i,8,9,-1.0,-0.5,-1.6,/,/,CC1=C(C(=O)N2CCOCC2)CC(CC(=O)NCCc2ccccn2)C(=O)N1Cc1ccccc1 (stereo not drawn)
2%,i,3,-1,3.0,-2.1,-1.7,0.67,-4,CCC(c1nnc(SCC(=O)NCCc2ccc(OC)c(OC)c2)n1Cc1ccccc1)N(C)C (stereo not drawn)
/,i,3,-4,0.3,-0.8,/,/,/,CN(C)CCCNC(=O)C[C@@H]1CC[C@H]2[C@@H](COc3ccc(NC(=O)c4cccc(F)c4)cc3C(=O)N2C)O1
?,/,/,/,/,/,-4.1,0.6,-33,[O-][N+]1=c2ccc(Nc3ccccc3)cc2=NC12CCCCC2
/,i,2,4,-0.7,-0.4,/,/,/,CCC(=O)Nc1ccc2c(c1)OC[C@H](C)N(C(=O)c1ccccn1)C[C@H](C)[C@H](OC)CN(C)C2=O
/,i,-3,1,-1.3,0.2,0.6,0.69,1,COc1ccccc1CNC(=O)C(C)n1nc(C)n2c(cc3occc32)c1=O (stereo not drawn)
-3%,/,/,/,/,/,5.8,0.67,9,COCC(C)n1c(C)cc(C(=O)CSc2nnc(Nc3ccccc3F)s2)c1C (stereo not drawn)
-5%,i,-19,-10,-2.9,4.3,0.6,0.6,-2,COc1ccc(N(CC(=O)Nc2ccccc2OC)S(=O)(=O)c2ccc(NC(C)=O)cc2)cc1
2%,i,-10,-20,-4.7,0.1,-1.7,0.7,-3,CCCCN(Cc1cc2cc(OC)ccc2[nH]c1=O)S(=O)(=O)c1ccc(C)cc1
1%,i,8,-5,-5.2,1.8,-1.4,0.61,-3,Cc1nccn1Cc1cccc2ccccc12
2%,i,-19,-17,-1.7,2.0,-5.4,/,-2,CCCCCOc1ccc(C(O)C(CN2CCOCC2)c2ccccc2)cc1 (stereo not drawn)
0%,i,7,13,-1.2,/,-3.3,/,-3,Cn1cccc1CC(=O)N/N=C/c1ccc(C(C)(C)C)cc1
/,i,7,0,0.8,2.4,-7.8,0.7,-1,Cc1ncoc1C(=O)NC1CC(C)(C)Cc2c1cnn2-c1ccc(F)cc1 (stereo not drawn)
-3%&-5%,/,/,/,/,/,-1.7,0.77,-4,Cc1c(NC(=O)CN2CCN(C(c3ccccc3)c3ccccc3)CC2)c(=O)n(-c2ccccc2)n1C
-14%,i,-18,-24,-8.0,-3.7,-1.2,/,-5,CCC(=O)c1cn(CC(=O)Nc2ccc(OC)cc2)c2ccccc12
/,i,1,1,-1.3,-1.6,/,/,/,CCCN1C[C@H](C)[C@H](OC)CN(C)C(=O)c2cc(NC(=O)C3CC3)ccc2OC[C@@H]1C
/,i,10,19,1.7,-0.6,0.5,0.71,28,O=C(CNC(=O)c1ccc(Cl)cc1)OCn1nnc2ccccc2c1=O
/,i,18,6,2.7,-0.5,0.1,0.67,2,CC(=O)Nc1ccccc1C(F)(F)F
6%,i,0,-14,4.3,-2.8,0.2,0.74,-5,Cn1c(=O)c2cc(S(=O)(=O)NC(C(=O)N3CCCCCC3)c3ccccc3)ccc2n(C)c1=O (stereo not drawn)
5%,/,/,/,/,/,1.5,0.81,/,O=[N+]([O-])c1cccc(-c2nnn(C34CC5CC(CC(C5)C3)C4)n2)c1
/,/,-41,-52,0.0,0.5,-0.3,/,-7,O=C(CCNC(=O)c1ccc(Br)cc1)Nc1cccc(S(=O)(=O)N2CCCCCC2)c1
0%,/,/,/,/,/,0.6,0.71,9,CCCCOC(=O)CSc1nnc(-c2ccc(Cl)cc2Cl)o1
/,i,8,10,-0.9,6.0,/,/,/,Cc1noc(C)c1NC(=O)N(C)C[C@@H]1Oc2ccc(NC(=O)c3ccncc3)cc2CC(=O)N([C@@H](C)CO)C[C@H]1C
5%,i,-6,-6,-15,-1.6,-2.4,/,0,S=C(N/N=C/c1ccc2ncccc2c1)Nc1cccnc1
-7%,/,/,/,/,/,-1.2,/,-10,O=C(c1ccc(CS(=O)(=O)c2cccc(C(F)(F)F)c2)o1)N1CCN(c2ccccn2)CC1
-2%,i,0,11,1.1,-2.4,3.9,0.7,/,COc1ncnc(OC)c1S(=O)(=O)Nc1ccc(C(F)(F)F)cc1

Continued.
Vif A3G,FGF22 binding,Ecoli rRNA inh,Ecoli rRNA inh OD600,Ecoli rRNA inh RFP,MLL AF4-AF9 inh,HNF4A DNA FP,E coli growth,ALR H2O2 inh,Compound
/,i,9,5,0.7,-12,-6.4,0.72,/,CCOCCCNC(=S)N(CCN(C)C)Cc1cc2cc3c(cc2[nH]c1=O)OCCO3
2%,i,/,/,/,-1.0,0.0,0.65,/,CC(=O)OCC(=O)C1(O)CCC2C3CCC4C(OC(C)=O)C(=O)CCC4(C)C3C(=O)CC21C (stereo not drawn)
/,i,5,7,4.5,-33,-0.6,/,3,O=C(COC(=O)c1cc(=O)[nH]c2ccccc12)Nc1nc(-c2cccc(Br)c2)cs1
0%,i,-1,-4,-0.4,-3.3,8.3,0.66,-5,COc1ccc(NC(=O)C2CCCN(C(=O)c3ccc(Cl)cc3)C2)cc1S(=O)(=O)N(C)C (stereo not drawn)
-4%,/,/,/,/,/,-2.7,0.69,-5,COc1cccc(NC(=O)C2CC(=O)N=C(N)S2)c1 (stereo not drawn)
/,i,5,12,-3.6,0.0,/,/,/,O=S(=O)(N[C@@H]1CC[C@@H](CCn2cc(-c3cccnc3)nn2)O[C@@H]1CO)c1ccccc1
0%,i,-8,-3,-6.8,0.3,-0.2,/,/,O=C(COc1ccc(Cl)cc1Cl)NC1CC1
-2%,/,/,/,/,/,2.7,0.71,-2,CC(=O)Nc1cc2c(cc1NC(=O)c1cnccn1)OCCO2
?,i,/,/,/,-0.5,-24,0.63,99*,N#Cc1c(SCC(=O)Nc2nc3ccccc3s2)sc2c(O)cc(=O)[nH]c12
-2%,i,-4,3,25,-1.6,5.6,0.8,69,C=CCOC(=O)C(=O)/C=C/c1csc2ccccc12
/,i,0,-13,-6.9,0.6,-2.4,0.66,/,COc1ccc(CN(C)CC(=O)NC(=O)NC2CCCCC2)cc1
-1%,/,6,10,-1.4,/,-1.9,0.74,-12,CC1CCCC(NC(=O)c2n[nH]c(=O)c3ccccc23)C1C (stereo not drawn)
